# Ba CapD inh: blocks the Bacillus anthracis CapD enzyme | z-score (concentration not given with the values) | purified CapD enzyme, fluorescence intensity read-out; stronger effect = lower value; some hits fall short of the stated cut | AID 492967 | 140,000 tested, 0.23% active;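 active = z-score under -4 in either of two replicates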;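 note: stock transfer was 100 nL into about 40 µL; score is relative to mean and spread of the plate; one replicate is shown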
# AID504770: E. coli YBA685 growth inhibition, screen for V. cholerae RctB inhibitors. E. coli YBA685 rctB-dependent plasmid, OD600 growth, 3 h; stronger effect = lower value. 130,000 tested, 0.27% active. AID 504770. z-score (concentration not given with the values);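 active = z-score under -2 on both plates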;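 note: wells of about 30 µL received 100 nL stock; score is relative to mean and SD of the test wells; the first replicate is given; strong numbers were not always called active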
# Numbers without * were called inactive; i = inactive; nt = no result given.
# Every second line gives: Ba CapD inh	AID504770
1: CC(Oc1ccc2c3c(c(=O)oc2c1)CCC3)C(=O)O (stereo not given)
  70	0.15
2: CCOC(=O)c1cnn(C(=O)c2ccccc2Cl)c1N
  nt	0.35
3: CCOC(=O)c1c(NC(=O)COc2ccc(Cl)cc2Cl)sc(C(=O)Nc2ccc(C)cc2C)c1C
  -0.025	nt
4: COC(=O)c1ccccc1OC(c1ccccc1)c1nc(OC)cc(OC)n1 (stereo not given)
  -0.43	nt
5: Cc1cc(C)c(C)c(S(=O)(=O)N2CCN(CN3C(=O)CCSC3=O)CC2)c1C
  nt	-0.4
6: O=C(NNC(=O)c1cc(-c2ccccc2)nc2ccccc12)c1ccoc1
  2.1	nt
7: COc1ccc(C(=O)Nn2c(-c3ccc(Br)cc3)nc3ccccc3c2=O)cc1OC
  0.015	nt
8: COc1cc([N+](=O)[O-])ccc1-c1ccc(/C=C2/SC(=S)N(C)C2=O)o1
  -0.005	nt
9: Clc1ccc(C2=CSC3=NCCCN23)cc1
  -0.13	nt
10: Cc1nn(-c2ccccc2)c2sc(C(=O)NC(=S)NCc3ccco3)cc12
  0.18	1.2
11: C=CCOC(=O)C1=C(C)NC2=C(C(=O)CC(c3ccc(OC)cc3)C2)C1c1cc2c(cc1Cl)OCO2 (stereo not given)
  19	nt
12: COC(=O)C1CNCCN1c1ccccc1 (stereo not given)
  0.085	-0.6
13: CCN(c1ccc(NC(=O)CN(C)Cc2ccccc2)cc1)C(C)C
  nt	0.1
14: CN(C)C(CNC(=O)c1cc2ccccc2o1)c1ccco1 (stereo not given)
  nt	-0.15
15: Cc1noc(C)c1COC(=O)[C@@H](NC(=O)Cc1cccc2ccccc12)C(C)C
  nt	-0.35
16: NC(=S)Nc1ccncc1
  0.65	nt
17: CC(C)c1ccc(NC(=O)c2coc(=O)c3ccccc23)cc1
  0.6	0.45
18: CCSc1nnc(NC(=O)CSC2=NCCS2)s1
  -1.7	1.6
19: CCC(=O)N1c2ccccc2NC2=C(C(=O)CC(c3ccccc3)C2)C1c1ccc2c(c1)OCO2 (stereo not given)
  5.5	nt
20: COC(=O)CC1(c2ccc(Cl)cc2)C(=O)c2ccccc2C1=O
  64	-0.1
21: S=c1[nH]nc(Nc2ccccc2)s1
  -1.6	-0.5
22: CCOC(=O)c1cc(S(=O)(=O)NC2CCCc3ccccc32)cn1C (stereo not given)
  0.18	-0.45
23: CCCC(=O)N1c2ccc(OC)cc2C2=C(SC(C(=O)OC)=C(C(=O)OC)C23SC(C(=O)OC)=C(C(=O)OC)S3)C1(C)C
  -0.14	nt
24: N#Cc1cc2c(nc1SCC(=O)Nc1ccc(S(=O)(=O)Nc3ncccn3)cc1)CCC2
  0.47	1.4
25: CCN1CCN(C(C)C(=O)NC(c2ccccc2)c2ccccc2)CC1 (stereo not given)
  nt	0.2
26: Fc1ccccc1Nc1nn(CN2CCCC2)c(=S)s1
  nt	-0.35
27: Cc1cccc(C)c1NC(=O)CCCSc1nnc(-c2ccccc2)o1
  nt	-0.95
28: Cc1cccc(CCNC(=S)Nc2ccc3nc4n(c(=O)c3c2)CCCCC4)c1
  0.22	nt
29: O=C(Nc1nc(-c2ccccn2)cs1)c1ccc(Br)s1
  0.42	-0.95
30: O=C(/C=C1\Sc2ccccc2NC1=O)NCCN1CCN(c2ccccc2)CC1
  -0.15	-0.2
31: O=c1[nH]c(N2CCc3ccccc32)nc2c1CCCC2
  0.42	0.75
32: Cn1cnc2cc(NC(=O)C3CCCCC3)ccc21
  nt	2.5
33: Cc1ccc2c(c1)C(c1ccccc1)=NC(O)C(=O)N2 (stereo not given)
  0.81	nt
34: Cc1ccccc1-c1nc(CS(=O)CC(=O)N2CCC3(CC2)OCCO3)c(C)o1 (stereo not given)
  -0.19	-1.8
35: Cc1ccccc1N1CCN(C2=NC(=O)/C(=C\c3ccccc3)S2)CC1
  -0.42	nt
36: CCN(CC)c1ccc(NS(=O)(=O)c2cccs2)cc1
  -1.2	0.55
37: O=C1C2C(C(=O)N1/N=C/c1ccc(N3CCCCC3)o1)C1C=CC2C12CC2 (stereo not given)
  nt	-0.65
38: CCN(CC)c1nc(N)c2c(N)nc3c(c2c1C#N)C(=O)CN3Cc1ccccc1
  nt	3
39: Cc1cccc2nc(CSC(=S)NCC3CCCO3)cn12 (stereo not given)
  -0.28	-1.2
40: Cc1nc(-c2ccc(F)cc2)c(CC(=O)N(Cc2ccco2)Cc2cccs2)s1
  nt	0.2
41: CCOC(=O)c1c(-c2ccccc2)oc2ccc(OC(C)C(=O)OC)cc12 (stereo not given)
  i	1.1
42: Cc1onc(-c2c(F)cccc2Cl)c1C(=O)N1CCSCC1
  0.095	nt
43: CN1C/C(=C\C=C\c2ccccc2)C(=O)/C(=C/C=C/c2ccccc2)C1
  0.67	nt
44: O=C(c1ccc2c(=O)n3c(nc2c1)CCC3)N(Cc1ccco1)Cc1cccs1
  nt	-0.55
45: Cc1ccccc1C(=O)N1CCC(C(=O)N2C(=O)c3cccc(N)c3C2=O)CC1
  nt	-2.2
46: CCOC(=O)C1(Cc2ccc(O)cc2)NC(c2ccco2)C2C(=O)N(c3ccccc3F)C(=O)C21 (stereo not given)
  nt	1.5
47: COc1ccc(-c2cn3c4c(=O)n(C)c(=O)n(C)c4nc3n2-c2ccc(OC)cc2)cc1
  0.055	nt
48: O=c1c(C=Nc2cccc(Cl)c2)c(C(F)(F)F)[nH]n1-c1ccccc1
  0.21	nt
49: COC(=O)COc1c(C(=O)OC)sc2ccccc12
  6.4	-0.5
50: COc1ccc(CN2CCc3cc(OC)c(OC)cc3C2)cc1O
  -0.42	1.3
51: CCC(=O)NCCc1csc2nc(-c3ccc(Cl)cc3)nn12
  nt	0.45
52: COc1ccc(NC(=O)COC(=O)/C=C/c2ccco2)cc1
  nt	-0.9
53: N#Cc1cnn(-c2nc(-c3ccc(Br)s3)cs2)c1N
  nt	0.35
54: CC1CCCCC1NS(=O)(=O)c1cc(F)ccc1CN1C(=O)c2cccnc2C1=O (stereo not given)
  -0.36	1
55: CC1(C)CC2=NN(c3ccccc3)P(=O)(Nc3ccccc3)C2=C(N2CCOCC2)C1 (stereo not given)
  nt	0
56: COc1ccc2[nH]cc(CCSC(=N)N)c2c1
  0.15	0.5
57: CC(C)Cn1cc(C(=O)N2CCN(c3ccccc3F)CC2)c2c3ccccc3n(C)c2c1=O
  38	1.8
58: O=C(CCN1N=C(c2ccccc2)CCC1=O)NCc1ccccc1Cl
  1	0.4
59: Cc1ccc(C(=O)COc2ccc(-c3cnc4ccccc4n3)cc2)cc1
  7.4	0.25
60: O=C(Nc1nc2ccc(Cl)cc2s1)C1CCCCC1
  i	-0.75

# The results go on:
# Every second line gives: Ba CapD inh	AID504770
61: Cc1cc(C)c(NC(=S)NN)c(C)c1
  0.11	nt
62: COc1ccc(OC)c(NC(=S)N(CCc2c(C)[nH]c3ccc(F)cc23)Cc2ccco2)c1
  -0.08	2.1
63: CN(Cc1ccccc1)C(=O)Cn1ncc2c3ccccc3n(C)c2c1=O
  25	-0.55
64: CC(OC(=O)c1ccc(S(=O)(=O)N2CCCc3ccccc32)cc1)C(=O)NCc1ccco1 (stereo not given)
  nt	-0.3
65: COC(=O)CN1C(=O)Nc2ccc(Cl)cc2C1c1ccccc1 (stereo not given)
  -1	-0.5
66: COC(=O)c1cc(-c2ccc(Cl)cc2)nc2ccccc12
  0.86	1.3
67: CN1N=C(c2ccc3c(c2)OCCO3)CCC1=O
  nt	-1.3
68: CN1C(=O)c2ccccc2C(C(=O)N2CCC3(CC2)OCCO3)C1c1cccs1 (stereo not given)
  -0.26	2.3
69: C1=CC(=C2SCCS2)C=C1
  -1.3	0.2
70: Cc1ccc(C#N)c(=O)[nH]1
  nt	-1.1
71: c1ccc2c(CN3CCCCC3)c[nH]c2c1
  0.26	-0.6
72: CCCNC(=O)Nc1cn(CC(C)C)c(=O)c2ccccc12
  25	-0.9
73: Cc1ccc2c(C(=O)CSc3ccccc3)c(C)[nH]c2c1
  0.29	0.2
74: CC(=O)OCC(=O)Nc1ccccc1C(F)(F)F
  0.03	-0.55
75: COc1cc(/C=N/NS(=O)(=O)c2ccc(C)cc2)cc(OC)c1OC
  -0.52	nt
76: COC(=O)c1ccc(N2CCN(Cc3ccccc3)CC2)c(N)c1
  nt	-0.05
77: COCCNC(=O)c1ccc(-n2c(SCC(=O)c3ccc(Br)cc3)nc3ccccc3c2=O)cc1
  -0.17	nt
78: N#Cc1c(-c2ccccc2)nc(N2CCCC2)[nH]c1=O
  1.5	-0.8
79: CCn1c(-c2ccccc2)c(C(=O)CN2CCN(S(=O)(=O)c3cccs3)CC2)c2ccccc21
  nt	-0.2
80: Fc1ccc(-c2n[nH]c(=S)n2CCN2CCOCC2)cc1
  nt	0
81: COC(CNC(=O)c1ccc(-c2cc(Cl)ccc2Cl)o1)OC
  nt	0.3
82: CCOC(=O)C1=C(N)OC2=C(C(=O)CC(C)(C)C2)C1c1ccc(OC)cc1 (stereo not given)
  0.005	nt
83: Cc1ccc(-n2nc(C)c3c(C)cc(C(=O)NCc4ccc(CN5CCOCC5)o4)nc32)cc1
  0.97	0.1
84: Cc1ccc(S(=O)(=O)N(C)C2CCN(Cc3ccc(C(C)C)cc3)C2)cc1[N+](=O)[O-] (stereo not given)
  0.1	nt
85: Cc1ccccc1Nc1nc(Nc2ccccc2C)nc(Sc2nccn2C)n1
  0.015	0.75
86: COc1cccc(NC(=O)CSc2nnc(N)s2)c1
  -0.28	-1.1
87: Cc1nc(S(=O)(=O)NCc2ccc(-c3cccs3)cc2)cn1C
  5.3	-0.2
88: CSc1nsc(SCc2ccc(F)cc2)n1
  -1.4	0.85
89: O=C(CC(NCc1ccccc1)C(=O)O)c1ccc(C2CCCCC2)cc1 (stereo not given)
  0.035	-0.55
90: CCCCc1noc(-c2c(-c3ccccc3Cl)noc2C)n1
  -0.4	-0.8

# Nos. 61 through 64 from above:
# Every second line gives: Ba CapD inh	AID504770
61: Cc1cc(C)c(NC(=S)NN)c(C)c1
  0.11	nt
62: COc1ccc(OC)c(NC(=S)N(CCc2c(C)[nH]c3ccc(F)cc23)Cc2ccco2)c1
  -0.08	2.1
63: CN(Cc1ccccc1)C(=O)Cn1ncc2c3ccccc3n(C)c2c1=O
  25	-0.55
64: CC(OC(=O)c1ccc(S(=O)(=O)N2CCCc3ccccc32)cc1)C(=O)NCc1ccco1 (stereo not given)
  nt	-0.3

# Later entries:
# Every second line gives: Ba CapD inh	AID504770
91: COc1ccccc1N1C(=O)c2ccccc2NC1c1cc(Cl)cc2c1OCOC2 (stereo not given)
  25	nt
92: Cc1nc2cc(C(=O)NCc3cccnc3)ccc2n1-c1ccc(Br)cc1
  0.7	nt
93: CCOC(=O)C1=C(C)NC(=S)N(C=O)C1c1ccccc1 (stereo not given)
  -0.77	2.2
94: CCN1CCC2(CC1)NC(=O)c1ccccc1O2
  0.12	-1.2
95: COc1cccc(CNC(=O)Cn2ncn3c(C)c(C(=O)NC4CCCCC4)c(C)c3c2=O)c1
  0.47	-0.9
96: CC12c3ccccc3C(c3ccccc31)C1C(=O)N(c3ccccc3Cl)C(=O)C12 (stereo not given)
  -0.045	nt
97: O=S(=O)(Cc1ccccc1Cl)N1CCOCC1
  -0.075	0.6
98: CSc1ncccc1C(=O)N(C)C
  0.47	-0.9
99: CCCc1nc2ccccc2n1CC(=O)Nc1sc(C(=O)N(C)C)c(C)c1C(=O)OCC
  nt	-0.2
100: Fc1cc2nc(-c3ccccc3)c(-c3ccccc3)nc2cc1Cl
  -0.35	nt
101: O=C(O)C1(O)c2ccccc2NC(=S)N1Cc1ccccc1 (stereo not given)
  nt	-0.35
102: COCc1cc(C)nc2sc3c(=O)n(-c4ccc(C)cc4C)nnc3c12
  0.22	nt
103: CC1CN(Cc2ccccc2)C(C)CC1O (stereo not given)
  -0.77	1.6
104: O=C(c1ccco1)N1CCN(c2cccc3[nH]ccc23)CC1
  0.42	0.1
105: Cc1ccc2cccc(OCc3ccc(Br)cc3)c2n1
  -0.065	-2
106: CC(C)Cc1ccc2c(N)c(C(=O)c3ccccc3)sc2n1
  -3	0.1
107: COc1ccc(N(C)C(=O)CCc2nc(-c3ccccc3F)no2)c(OC)c1
  0.42	-2
108: N#CCCn1cc(CNCCOc2ccccc2)c2ccccc21
  nt	2
109: COC(=O)c1nn(-c2ccc(Cl)cc2)c(=O)cc1Sc1ccc(C)cc1
  -0.28	nt
110: c1cc(-c2nnc(C34CC5CC(CC(C5)C3)C4)o2)ccn1
  nt	-0.3
111: Cn1ncc2c1ncn1nc(-c3ccncc3)nc21
  0.15	-0.35
112: Cc1cccc(NC(=O)Nc2cccc(C(F)(F)F)c2)n1
  nt	0.1
113: CCCCN(CC)c1ncnc2c1sc1nc(N3CCOCC3)c3c(c12)CC(C)(C)OC3
  0.01	0
114: O=C(O)CNC1=NCCCCC1
  nt	0.15
115: O=S(=O)(NNc1ccnc2cc(Cl)ccc12)c1ccccc1F
  nt	-0.1
116: O=C(CCc1nc2cccnc2n1Cc1cccs1)N1CCC2(CC1)OCCO2
  5.8	0.15
117: Cn1cnnc1-c1ccc(N)cc1
  0.23	-0.35
118: COc1ccccc1N1CCN(c2ncnc3sc(C(=O)NCCN4CCOCC4)c(C)c23)CC1
  -0.4	nt
119: CCOC(=O)c1c(NC(=O)COCc2cc(-c3ccc(F)cc3)on2)sc(C)c1C
  1.4	-1.2
120: O=C(CCCN1C(=O)c2ccccc2C1=O)Nc1c(C(=O)C2CC2)oc2ccccc12
  0.93	0.05
121: CCOc1cc(C=C2C(=O)N(C)C(=O)N(C)C2=O)ccc1OCCOc1cccc(C)c1
  0.26	nt
122: O=C(CCCn1c(=O)c2sccc2n(CC(=O)NCc2ccco2)c1=O)NCc1ccco1
  0.45	-0.05
123: COC(=O)c1ccc(CSc2nc3ccccc3c(=O)n2N)cc1
  nt	0.4

# Four entries picked at random from the list so far:
# Every second line gives: Ba CapD inh	AID504770
110: c1cc(-c2nnc(C34CC5CC(CC(C5)C3)C4)o2)ccn1
  nt	-0.3
112: Cc1cccc(NC(=O)Nc2cccc(C(F)(F)F)c2)n1
  nt	0.1
117: Cn1cnnc1-c1ccc(N)cc1
  0.23	-0.35
111: Cn1ncc2c1ncn1nc(-c3ccncc3)nc21
  0.15	-0.35
